MT1-MMP act inh: blocks activation of human MT1-MMP; HT1080 RFP-PRO-GFP cells, GFP/RFP ratio fluorescence, overnight; percent of plate control window, DMSO zero; AID 651647; actives 0.061% (n = 360,000); GFP/RFP ratio change, % at 20 µM;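 active = GFP/RFP ratio change of at least 30% with cell ATP level not reduced by more than half and red fluorescence within 50% of control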; also: strong numbers were not always called active
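Test system: HT1080 cells expressing an RFP-PRO-GFP fluorescent reporter construct / Compound dosing: single-point 20 µM compound, 1% DMSO / Schedule: cells overnight before dosing, compound overnight, 37 °C, 5% CO2 / Evaluation: GFP/RFP fluorescence ratio / Control set: DMSO and RFP-L50D-GFP cell wells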
Env fusion inh: blocks HIV Env-driven cell-cell fusion. HeLa-JRFL Env/CEM21 cell fusion, luciferase. inhibition, % at 12.3 µM. actives 1.1% (n = 360,000);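 active = mean replicate inhibition score of at least 50 and every replicate individually at or above 50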;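 also: 0% = plate neutral controls and 100% = maraviroc near 300 nM; one replicate is shown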
eIF4H inh: inhibitors of RNA binding by human eIF4H; Q15056; eIF4H fluorescence polarization binding assay; inhibition, % at 35 µM; actives 0.94% (n = 290,000);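 active = 50% or more with normal probe brightness, or confirmed in later tests; about a fifth of its hits are not listed in these tables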;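 also: calls also rest on retests at 20 µM and on dose response follow-up; 0% = protein and probe with vehicle and 100% = probe without protein; strong numbers were not always called active; many hits fall short of the cut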
PABP polyA inh: PABP-poly(A) binding inhibition; inhibition, % at 35 µM; P11940; PABP-poly(A) RNA binding, fluorescence polarization; actives 1% (n = 290,000);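 active = 50% or more with normal probe brightness, or confirmed in later tests; about a fifth of its hits are not listed in these tables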;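 also: calls also rest on retests at 20 µM and on dose response follow-up; controls were probe without protein and protein plus probe with vehicle; some compounds called inactive have numbers as strong as hits; many hits fall short of the cut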
Target sequence (P11940 whole entry, looked up): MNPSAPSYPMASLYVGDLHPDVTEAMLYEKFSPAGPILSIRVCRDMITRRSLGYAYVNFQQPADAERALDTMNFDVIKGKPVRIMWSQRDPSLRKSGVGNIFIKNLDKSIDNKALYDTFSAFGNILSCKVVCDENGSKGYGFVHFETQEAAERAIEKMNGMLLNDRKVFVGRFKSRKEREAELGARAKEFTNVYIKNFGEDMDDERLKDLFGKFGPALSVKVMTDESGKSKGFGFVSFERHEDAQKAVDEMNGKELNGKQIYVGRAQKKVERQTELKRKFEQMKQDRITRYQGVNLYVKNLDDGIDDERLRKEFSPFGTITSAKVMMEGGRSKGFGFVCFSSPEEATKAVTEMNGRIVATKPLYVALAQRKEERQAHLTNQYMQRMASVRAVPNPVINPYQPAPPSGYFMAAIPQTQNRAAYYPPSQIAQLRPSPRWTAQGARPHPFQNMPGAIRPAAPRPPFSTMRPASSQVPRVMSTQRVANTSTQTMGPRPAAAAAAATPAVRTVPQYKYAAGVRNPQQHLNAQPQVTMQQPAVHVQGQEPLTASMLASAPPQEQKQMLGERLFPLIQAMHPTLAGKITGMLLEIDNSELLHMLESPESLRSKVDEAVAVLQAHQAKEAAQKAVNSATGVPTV
CSC inhib: blocks cancer stem cells | cancer stem cell-like cells viability, luminescence | inhibition, % at 7.5 µM | actives 1.1% (n = 300,000) | AID 2717;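 active = mean at 75% or more and at least half the replicates too; tested in HMLE shEcad cells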;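 also: 0% = median of negative and 100% = median of positive control wells; the first replicate is given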
Rce1 inh: blocks yeast Ras-converting enzyme. Q03530. yeast membranes, quenched prenylated peptide cleavage fluorescence. calls only. actives 0.27% (n = 290,000). AID 2563;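 active = fall in fluorescence gain of 50% or more versus controls, with final raw signal at or below 3038400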;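 also: plate controls were neutral control wells for no effect and wells lacking membranes for full effect; tested at 10 µM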
Yeast UUG start: alters start codon recognition fidelity in yeast; S. cerevisiae UUG-firefly luciferase reporter, luminescence/redox ratio; activity score, % at 18.7 µM; actives 0.13% (n = 350,000); AID 602363;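 active = replicate mean at a twofold rise or more, about +100% in these data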;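 also: firefly luciferase made from a UUG start codon reports start codon fidelity; reporter light over untreated wells divided by growth signal over untreated wells; some hits fall short of that in this replicate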
MT1-MMP act inh RFP: also measured in MT1-MMP act inh; calls as there; RFP signal change, %; measured here: RFP expression control read;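 0 = vehicle wells; hits needed this value within 50% of zero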
* = called active by the depositor; i = inactive; x = not tested or not shown; + = active, no number.

Values run as follows: MT1-MMP act inh, MT1-MMP act inh RFP, Env fusion inh, eIF4H inh, PABP polyA inh, CSC inhib, Rce1 inh, Yeast UUG start
CN(C(=O)c1ccc(Br)o1)C1CCCCC1
  0, 1, -12, 6, -6, -8, i, -13
Nc1ccc2nc(CCCCc3nc4ccccc4[nH]3)[nH]c2c1
  7, 5, 16, 4, 2, 21, i, 16
O=C1CCC2S/C(=C/Nc3ccc(C(F)(F)F)cc3)C(=O)N12 (stereo unspecified)
  6, 2, 52, 2, 17, -4, i, x
CCCCN1C(=O)NC(NC(C)=O)(C(F)(F)F)C1=O (stereo unspecified)
  0, 5, x, 3, 16, -34, i, -7
CCN(CC)CCCOc1nc(C)nc2c1oc1ccccc12
  4, 6, -67, -4, 40, x, x, -4
CCOc1cc(S(=O)(=O)NCc2ccncc2)ccc1Cl
  -7, -27, 4, -9, -7, -2, i, x
c1ccc(OCc2noc(CN3CCC(C4CCCCC4)C3)n2)cc1 (stereo unspecified)
  -10, -3, 16, -9, -1, 9, i, x
COc1ccc(C(=O)N/C(=C/c2cccnc2)C(=O)NCc2ccco2)cc1OC
  2, 1, 2, -1, 5, -6, i, x
Cc1occc(=O)c1OC(=O)Nc1ccc(Cl)c(Cl)c1
  -21, -20, 27, 7, 3, 38, x, x
CCC(C)[C@H](NC(=O)N1CC(=O)Nc2ccccc21)C(=O)N[C@@H](Cc1c[nH]c2ccccc12)C(=O)O (stereo partly specified)
  -1, 4, x, 5, 5, -7, i, -12
COc1cccc(-c2ccc(C#N)c(SCC(=O)NCCc3ccccc3)n2)c1
  3, 4, -1, -11, 0, -12, i, -12
Cc1ccc(-c2nc(-c3ccncc3)no2)cc1C
  3, -5, -59, 2, -4, 6, i, -27
O=C(COc1ccc2ccccc2c1)NNC(=O)c1ccccc1
  1, 2, -2, 3, 12, x, i, -12
CCOC(=O)N1CCC(n2c(SCC(=O)NCc3ccco3)nc3ccsc3c2=O)CC1
  -4, -7, x, -7, -8, 0, i, x
c1ccc(C[C@H]2CNCCN2CC2(c3ccccc3)CC2)cc1
  -3, 2, 1, x, x, 18, i, -22
CC[C@]12c3[nH]c4cc(CCC(=O)N(C)C)ccc4c3CCN1C(=O)[C@@H](CC(=O)NCC13CC4CC(CC(C4)C1)C3)C[C@@H]2C(=O)N1CCN(C(=O)C2CC2)CC1
  2, -1, -141, x, x, x, x, 16
COc1ccc(C2C3=C(CC(C)(C)CC3=O)Nc3c2c(=O)[nH]c(=O)n3Cc2ccccc2)cc1 (stereo unspecified)
  -8, -4, x, -6, -5, -11, i, -2
Cc1occc1C(=O)NNC(=S)Nc1ccccc1C(F)(F)F
  11, 1, x, -12, 7, -6, i, -25
N#C/C(=C\c1ccc2c(c1)OCO2)C(=O)NCc1ccco1
  -1, 0, -9, -5, -2, x, i, x
O=C(NCc1ccccc1)C1CCN(S(=O)(=O)N2CCOCC2)CC1
  0, 4, -44, -1, -9, -4, i, -3
CC(C)CNS(=O)(=O)c1ccc(CCC(=O)N2CCN(c3ccc(F)cc3)CC2)cc1
  -1, -4, -4, 8, -3, -13, i, x
O=C(N/N=C\c1ccc(F)cc1)c1ccc(Cn2cc(Br)c([N+](=O)[O-])n2)o1
  0, -4, 5, -17, 4, 68, i, -4
CN(CC(=O)Nc1sccc1C#N)S(=O)(=O)c1ccc(F)cc1
  -4, 0, -5, x, x, x, x, -22
CNS(=O)(=O)c1cc(OC)ccc1OC
  2, 2, x, 5, 9, 7, i, -11
CCOc1cc(/C=C2\N=C(SC)SC2=O)cc([N+](=O)[O-])c1OC(C)=O
  0, -1, x, 25, 24, -4, i, 71
COc1ccc(CNC(=O)c2sc(=O)n(Cc3ccccc3OC)c2C)cc1
  8, -3, -1, x, x, x, x, -22
CCc1nnc(NC(=O)CN2C(=O)NC3(CCCC3)C2=O)s1
  2, 3, -5, x, x, x, x, -9
Cc1ccc(C2=NN(CCC(=O)NCCCN3CCOCC3)C(=O)CC2)cc1
  2, 4, 5, x, x, 1, i, -2
CN(C)CCCN(C(=O)C1COc2ccccc2O1)c1nc2cc3c(cc2s1)OCO3 (stereo unspecified)
  -1, 5, 3, -11, -4, -9, i, -13
CCOC(=O)c1c(C)[nH]c(O)c1C=Nc1ccc(Cl)cc1
  -34, 12, -73, 2, -2, 6, i, -12
CCOC(=O)C1=CC[C@H]2c3c(c4ccccc4n3C)C(=O)C1N2Cc1ccccc1
  -3, -1, -42, x, x, x, x, -2
C=CCN=C(C)C1=C(O)CCC1=O
  0, 0, x, -1, 10, 20, i, x
COc1ccc(OCCOC(=O)c2ccc(F)c(S(=O)(=O)N3CCOCC3)c2)cc1
  3, -8, -2, x, x, -19, x, -11
O=C(c1ccc(Cl)s1)N1CCN(c2ncccn2)CC1
  -1, -3, -15, -11, -4, -11, i, 14
O=C(Nc1sc2c(c1C(=O)c1ccc(Cl)cc1)CCCC2)c1cccnc1
  -6, -4, -10, -10, 2, x, +, -19
CC(C)(C)OC(=O)NCCCCCc1cn(CC(=O)NCCCCCCCCCCC(=O)N2CCN(C(=O)OC(C)(C)C)CC2)nn1
  9, -29, 57*, x, x, -1, x, -7
CCOP(=O)(c1ccccc1)c1nc(-c2ccccc2C)oc1NCc1ccccc1 (stereo unspecified)
  -2, -1, 15, -4, -5, 33, i, x
O=C(CCc1c[nH]c2ccccc12)NCCOc1ccccc1
  -2, 2, -8, 0, 3, 6, i, -11
Cc1nc2ccc(Cl)cc2nc(C)/c1=N\O
  -5, 5, x, 10, 26, -4, i, -18
Cc1ccc(OCC(=O)NCCCNC(=O)c2ccccn2)cc1
  -3, 5, 15, 15, 11, 12, i, -6
CC(=O)CCC(=O)c1ccc2ccccc2c1
  3, 5, -11, -2, -3, -4, i, -15
CC1CCN(C(=O)c2cc(-c3ccco3)on2)CC1
  -9, 0, 2, 2, 13, 1, i, 12
COc1ccc(N2C(=O)CCC(C(=O)N(C)CCc3ccccn3)C2c2ccc(OC)c(OC)c2)cc1 (stereo unspecified)
  5, 4, -11, 7, 5, -13, i, -12
O=C(c1ccc(C(F)(F)F)cc1)N1CCCCC1
  -4, -1, 1, -4, -5, 0, i, -17
N#Cc1ccc(C2N=C(c3ccccc3)NO2)cc1 (stereo unspecified)
  3, 4, -38, -1, -7, x, i, -19
CCCCn1c(SCc2nc(N)nc(N3CCCCC3)n2)nc2c1c(=O)n(C)c(=O)n2C
  0, 6, 5, -21, -7, -9, i, x
CN(CCOc1ccc(Cl)cc1)C(=O)CN1C(=O)NC2(CCCC2)C1=O
  -4, -5, 6, x, x, -14, i, x
CC1CCN(C(=O)c2ccc(NS(=O)(=O)c3cccc4cccnc34)cc2)CC1
  3, -3, -8, -11, 4, -19, i, -4
CCOc1ccccc1OCCCNCc1ccco1
  4, 4, 11, 12, 13, 14, i, x
CC1C(=O)Nc2ccc(S(=O)(=O)N3CCc4ccccc4C3)cc2NC1=O (stereo unspecified)
  4, -5, 17, 7, 8, -18, i, -4
CCOc1ccc(Cl)cc1S(=O)(=O)n1cnc2ccccc21
  3, 0, x, -8, -4, 59, i, -6
CC(=O)Nc1ccc(S(=O)(=O)CCC(=O)O)cc1
  12, 0, x, 13, -6, 0, x, -1
CCOc1ccccc1NC(=O)c1ccccc1NS(C)(=O)=O
  -1, -1, x, 1, -9, -5, i, 10
Cc1ccccc1C1c2[nH]c3ccccc3c2CCN1Cc1cccn1-c1ncccn1 (stereo unspecified)
  -16, -6, 11, 50, 24, x, i, 7
COc1ccc(Cc2nnc(NCCO)[nH]c2=O)cc1OC
  2, 1, -1, -5, 5, -6, i, -1
COc1ccc(-c2nc(-c3ccccn3)nc(N3CCN(C)CC3)c2C#N)cc1
  -3, 0, 3, 8, 14, 0, i, -28
Cc1n[nH]c(C)c1CCc1nc2c3ccccc3nc(SCC(=O)Nc3ccccc3F)n2n1
  5, 1, -61, -2, -25, 2, i, -35
CC(C)(C)c1nc2ccc([N+](=O)[O-])cc2[nH]1
  3, -3, -6, 11, 13, -4, x, -12
O=C(Nc1cc(C(F)(F)F)ccc1N1CCOCC1)C1=NN(c2ccccc2)C(=O)CC1
  -5, -3, -3, -13, 11, 32, i, 4
O=C(Nc1ccc(N2CCN(C(=O)C3CC3)CC2)cc1)c1cccs1
  3, 3, 8, -2, -6, 3, i, x

Arranged by molar mass (low to high): some entries from above.
Values run as follows: MT1-MMP act inh, MT1-MMP act inh RFP, Env fusion inh, eIF4H inh, PABP polyA inh, CSC inhib, Rce1 inh, Yeast UUG start
Cc1ccccc1C1c2[nH]c3ccccc3c2CCN1Cc1cccn1-c1ncccn1 (stereo unspecified)
  -16, -6, 11, 50, 24, x, i, 7
O=C(Nc1cc(C(F)(F)F)ccc1N1CCOCC1)C1=NN(c2ccccc2)C(=O)CC1
  -5, -3, -3, -13, 11, 32, i, 4
CCCCn1c(SCc2nc(N)nc(N3CCCCC3)n2)nc2c1c(=O)n(C)c(=O)n2C
  0, 6, 5, -21, -7, -9, i, x

Next records.
Values run as follows: MT1-MMP act inh, MT1-MMP act inh RFP, Env fusion inh, eIF4H inh, PABP polyA inh, CSC inhib, Rce1 inh, Yeast UUG start
O=C(NC1CC1)c1cccc2c1C(=O)c1ccc(N3CCC(N4CCCCC4)CC3)cc1S2(=O)=O
  -27, 4, -1, x, x, x, x, -11
CCn1c2ccccc2c2nnc(SCC(=O)c3c(N)n(C)c(=O)n(C)c3=O)nc21
  1, 5, 2, -5, 8, 1, i, x
COc1cc(C(=O)NCCOc2ccccc2)c(Br)c(OC)c1OC
  0, -2, -5, -1, 2, -14, i, 5
Cc1ccc(CNC(=O)[C@@H]2CCC(=O)N2Cc2ccco2)cc1
  0, -4, 19, 11, 0, -22, i, -10
CC(C)(C)NC(=O)CN(Cc1cccs1)C(=O)CNS(=O)(=O)c1ccc(F)cc1
  -1, 6, 0, -1, -1, -11, i, x
COc1ccc(C(=O)NCC(c2ccco2)N2CCOCC2)cc1 (stereo unspecified)
  -1, 7, -7, x, x, x, x, -9
CCOC(=O)CSc1nc2cc(C(F)(F)F)cnc2n1C
  0, 3, -1, -9, -2, -22, i, x
CN(Cc1cc(-c2ccccc2)on1)C(=O)c1cc(COc2c(F)cccc2F)on1
  4, 2, -2, -2, -2, 9, i, -18
Cc1ccc(S(=O)(=O)N2CCOC23CCN(C(=O)c2ccccc2Br)CC3)cc1
  -23, -17, 0, x, x, -3, i, 2
O=C(CN1CCSC1=O)N1CCN(S(=O)(=O)c2ccccc2)CC1
  2, 2, x, x, x, 0, x, -14
O=C(O)c1sccc1SCc1ccc(Cl)cc1Cl
  1, 4, 20, -2, 2, 1, i, -24
O=C(Nc1ccc(Br)cn1)c1cccc2ccccc12
  2, -12, -343, x, x, 64, i, -19
COc1ccc(NC(=O)C2CCCN2C(=O)NCc2ccccc2)cc1OC (stereo unspecified)
  0, 4, 13, 0, -4, -15, x, x
